TRPV1 potentiator – enhances activation of the human vanilloid receptor TRPV1; TRPV1-expressing cells, Fluo-8 calcium influx, capsaicin EC20 potentiation; host cell line not named in the record; control for the full effect not named in the record; Q8NER1; potentiation, % at 8.33 µM; 320,000 tested, 0.02% active; AID 540277; active means potentiation above 80%; inconclusive means 30% to 80%; inactive means below 30%; further: 0% is about no effect
Target sequence (Q8NER1 whole entry, looked up): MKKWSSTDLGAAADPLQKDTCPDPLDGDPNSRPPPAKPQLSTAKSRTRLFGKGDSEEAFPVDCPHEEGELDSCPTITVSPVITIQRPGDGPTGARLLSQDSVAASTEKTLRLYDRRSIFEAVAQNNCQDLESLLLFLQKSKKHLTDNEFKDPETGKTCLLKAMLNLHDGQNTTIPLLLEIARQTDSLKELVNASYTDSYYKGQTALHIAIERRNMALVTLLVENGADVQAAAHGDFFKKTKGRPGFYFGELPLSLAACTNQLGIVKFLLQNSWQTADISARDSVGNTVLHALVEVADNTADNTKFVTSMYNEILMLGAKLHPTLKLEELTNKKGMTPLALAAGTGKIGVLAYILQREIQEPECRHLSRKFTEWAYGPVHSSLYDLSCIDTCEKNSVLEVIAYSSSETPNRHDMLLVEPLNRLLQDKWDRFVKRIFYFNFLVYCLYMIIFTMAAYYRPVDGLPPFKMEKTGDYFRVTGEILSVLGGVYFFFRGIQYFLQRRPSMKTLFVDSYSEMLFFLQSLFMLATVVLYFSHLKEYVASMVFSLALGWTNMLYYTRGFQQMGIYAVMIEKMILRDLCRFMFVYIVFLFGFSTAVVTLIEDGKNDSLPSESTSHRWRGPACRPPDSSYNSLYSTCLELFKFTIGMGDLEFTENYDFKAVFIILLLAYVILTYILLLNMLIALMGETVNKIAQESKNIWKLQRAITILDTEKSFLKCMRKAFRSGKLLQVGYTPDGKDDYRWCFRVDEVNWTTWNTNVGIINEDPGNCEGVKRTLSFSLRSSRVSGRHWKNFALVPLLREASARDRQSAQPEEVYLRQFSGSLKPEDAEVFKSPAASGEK
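TRPV1-expressing cells were cultured overnight at 35.5C and loaded with Fluo-8 calcium dye for 40 to 90 min at room temperature. After a 10 s baseline, compound was added and calcium influx was read kinetically for 3 min (ex 480/em 520 nm).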
Six1-Eya2 inh – inhibitors of human Six1/Eya2 interaction; Q15475+O00167; AlphaScreen GST-Six1/His-Eya2 binding, biochemical; active compounds read low; control for the full effect not named in the record; activity change, % (concentration not given with the values); 360,000 tested, 0.56% active; AID 651725; in the data active = activity change below about -65%; inconclusive = about -30% to -65%; inactive = above about -30%; further: on the % scale 0 is the no-effect control and ±100 the full control effect
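Compounds are tested against tagged Six1 and Eya2 proteins bridged by glutathione donor and nickel acceptor beads; after a one-hour incubation at 37 °C without light, AlphaScreen emission is recorded.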
TRPML1 inh – inhibitors of human TRPML1 channel; 390,000 tested, 0.02% active; Q9GZU1; TRPML1-inducible cells, Ca2+ dye fluorescence, FDSS; active compounds read low; inhibition of EC80 agonist-evoked calcium signal; AID 624415; activity change, negative = inhibition, % (test concentration not listed); in the data active means activity change below about -50%; inconclusive means about -30% to -50%; inactive means above about -30%;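 further: stimulus is agonist 54-4 at its EC80 concentration; on the % scale 0 is the no-effect control and ±100 the full control effect; compound concentration not given in the record; the text of the record puts the active cut at -80%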
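Calcium fluorescence in TRPML1-DL cells induced overnight with Tet: a 110 s read after compound pin addition, then a 110 s antagonist read after challenge with 54-4 at 4 uM final (EC80).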
TRPML1 ag – agonists of human TRPML1 channel. activation, % (no concentration beside the values). TRPML1-expressing cells, Ca2+ dye fluorescence, FDSS; host cell line not named in the record; reference of the full effect not given here. 410,000 tested, 0.12% active. Q9GZU1; in the data active = activation above about 50%; inconclusive = about 30% to 50%; inactive = below about 30%; further: 0% is about no effect; the text of the record puts the active cut at 80%
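Cells: TRPML1-DL, 1X Tet inducer, ~16 h at 37 degrees C/5% CO2. Dye: ABD Ca8 no-wash + quencher, 45-90 min RT. Read: 10 s baseline, compound add, 110 s agonist phase; 54-4 EC80 (4uM final), 110 s antagonist phase.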
CtBP-E1A blk – inhibitors of CtBP/E1A interaction; AlphaScreen GST-E1A/His-CtBP binding, 1536-well; active compounds read low; control for the full effect not named in the record; activity change, % (concentration not given with the values); 340,000 tested, 0.49% active; in the data active means activity change below about -65%; inconclusive means about -30% to -65%; inactive means above about -30%; further: on the % scale 0 is the no-effect control and ±100 the full control effect
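Homogeneous bead-based format: GST-tagged E1A captured on glutathione donor beads, His-tagged CtBP on nickel acceptor beads; compounds precede bead addition by 2 h at 37 °C.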
D2 potentiator – potentiates the human D2 dopamine receptor allosterically; P14416; DiscoveRx D2 beta-arrestin cells, luminescence, 90 min; 100% = 57 uM dopamine signal; potentiation, % (no concentration beside the values); 360,000 tested, 0.23% active; AID 624464; active = potentiation of 50% or more; inconclusive = 30% to 50%; inactive = 30% or less;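 further: compound concentration not given in the record; tested on top of an EC20 dose of dopamine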
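D2 cells co-treated with compound plus 50 nM dopamine (EC20) for 90 min at 37 deg C to detect potentiation. Beta-arrestin recruitment was read as enzyme-fragment luminescence after 1 h at ambient temperature. Full response was set by 57 uM dopamine.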
Numbers without * were called inactive; u = inconclusive; x = not tested or not shown; & = joins results of further samples.

compound	TRPV1 potentiator	Six1-Eya2 inh	TRPML1 inh	TRPML1 ag	CtBP-E1A blk	D2 potentiator
COc1ccc(-c2noc(CNC(=O)CCN3C(=O)[C@H]4CC=CC[C@H]4C3=O)n2)cc1	7	2	32	0.8	-21	-6
CC(C)NC(=O)C1(c2ccccc2)CCOCC1	-2	18	-11	-0.3	2	-16
Cc1c(OCC(=O)NCC2CCC(C(=O)NCCCO)CC2)ccc2c(-c3ccccc3)cc(=O)oc12 (stereo not given)	9	3	-5	-0.2	-1	1
Cn1c(=O)[nH]c(=O)c2c1nc(N1CCNCC1)n2Cc1ccccc1	5	0	-5	0.3	1	-8
CN1CCC(=NNC(=O)c2cn(-c3ccccc3)nc2-c2ccccc2)CC1	2	5	8	-0.4	-2	-10
Nc1cc(=O)[nH]c(=O)n1CCCc1ccccc1	x	2	-12	-0.1	7	0
CCOP(=O)(OCC)C(Cc1ccc(OC)c(OC)c1)N=C(c1ccccc1)c1ccccc1 (stereo not given)	x	-5	x	-1.2	-1	1
CCOC(=O)c1nn(-c2ccccc2)c(C#N)c1N	-10	8	-4	-0.8	-16	-3
Cc1cc(NC(=O)CSc2nc(-c3ccccc3)nc3c2c(=O)n(C)c(=O)n3C)no1	3	5	6	-0.5	12	-2
COc1ccccc1N1CCN(C(=O)c2cccs2)CC1	-15	-1	25	0.1	-3	0
CN1CCC(=O)N([C@H](CSc2ccccc2)c2ccccc2)CC1	-3	-5	-6	0.7&-0.4	-14	-18
COc1ccc(Cl)cc1NC(=O)COC(=O)c1ccc(C)o1	0	-5	1	-0.8	x	3
Cc1nc(NC(=O)CSc2ccccc2N)sc1C	-5	-4	6	-0.4	7	-14
CC(C)N(CCNCC(O)COc1ccc(C(C)(C)c2ccccc2)cc1)C(C)C (stereo not given)	0	4	6	1.9	6	-13
COc1ccc(S(=O)(=O)N2CCC(C(=O)NCCC(=O)NCc3cccc(OC)c3)CC2)cc1	6	1	13	-0.4	4	-8
CSc1c(C#N)sc(=S)n1-c1ccc(C)cc1	-10	-8	-3	0.1	-1	-5
O=C(COc1ncnc2ccccc12)NCC1CCCO1 (stereo not given)	-9	0	-10	-0.5	-14	-1
N/C(CS(=O)(=O)c1ccccn1)=N\OC(=O)c1ccccc1Cl	-1	7	22	-0.5	5	3
Cn1c(=O)nc2n(Cc3ccccc3)c3ccccc3cc-2c1=O	-10	-6	-17	-1.3	9	-12
O=C(O)CCSc1nnc(COc2cccc3cccnc23)n1-c1ccccc1	8	20	7	1.4	6	-4
COc1ccc(/C=N/Nc2nc(Nc3ccccc3)nc(N3CCCC3)n2)cc1	7	3	-1	-0.6	-22	-3
CC(C)c1ccc2c(c1)C(c1ccc(N3CCOCC3)cc1)=NNC(c1cccs1)=N2	-10	-23	-23	-1.2	-4	-6
CCCCCC(=O)NC(=S)Nc1cccc(C(C)=O)c1	-3	4	19	0.1	1	-11
Cc1ccc(S(=O)(=O)Nn2c(O)c(C=C3N=c4ccccc4=N3)sc2=S)cc1	10	-5	16	2.1	-29	-17
O=C(Nc1ccccc1F)Nc1cc(S(=O)(=O)N2CCOCC2)ccc1N1CCCC1	17	-3	15	0.6	u	-3
O=C1CC(c2cccc(Cl)c2)CC(O)=C1C=NC1CCCC1 (stereo not given)	-11	-1	-4	-1.4	0	3
Cn1c(=O)c2cc(NC(=O)OCCF)ccc2n1Cc1cccc(C(F)(F)F)c1	x	-10	x	-0.4	-9	0
CC1CC(C)CN(CCCNC(=O)Cn2ncn3cccc3c2=O)C1 (stereo not given)	6	6	-8	0.2	3	-11
O=C(COC(=O)C12CC3CC(CC(C3)C1)C2)NCCCc1ccccc1	-24	17	1	2.3	12	-11
CN(C(=O)CS(=O)(=O)c1cn(CC(=O)N2CCCC2)c2ccccc12)c1ccccc1	x	-10	12	0.7	-24	-29
O=S(=O)(NC(=S)c1ccccc1)c1ccccc1	x	6	-1	-0.8	5	-13
COc1ccccc1CNc1nc(NCc2ccccc2)nc2ccsc12	x	-5	x	11	-8	-22
CCCCC1CC(=O)NC1(C(=O)OCC)C(=O)OCC (stereo not given)	x	-6	6	0.6	2	-8
COc1cccc(C2=NOC(C(=O)NC3CCCCC3)C2)c1 (stereo not given)	u	-1	13	0.8	4	-6
Cc1ccccc1NC(=O)CSc1nnc(Cc2cccn2C)n1-c1ccc(F)cc1	9	-5	-14	-0.2	-3	-7
c1ccc(CN2OCC3Cn4c(nc5ccccc54)C32)cc1 (stereo not given)	22	5	28	0.2	1	-3
COc1cc(C(=O)Oc2ccccc2N)cc(OC)c1OC	-12	-8	20	-0.5	0	4
O=c1[nH]nc(Sc2ncnc3sccc23)n1CCc1ccccc1	-5	19	5	-0.6	0	-5
COc1ccc(CNC(=O)C(=O)NCC2CCCO2)cc1 (stereo not given)	2	11	-12	-1.0	11	-4
CC(On1c(-c2ccccc2)nc2ccc(Cl)cc21)C(=O)O (stereo not given)	1	3	-3	0.1	0	7
COc1cc(C2NC(=O)CCC2[N+](=O)[O-])cc(Br)c1OC (stereo not given)	-2	4	u	0.4	12	0
O=C(Nc1ccccc1-c1ccccc1)C1CCCC1	4	12	-4	1.4	14	2
O=C(NCc1cccc2ccsc12)c1cccs1	-5	16	-29	1.2	0	-10
Cc1c(NS(=O)(=O)c2ccc(C(=O)NCc3ccccc3)cc2)c(=O)n(-c2ccccc2)n1C	2	1	5	0.0	7	2
CCN1C[C@@H]2[C@@H]3C(=O)N(Cc4ccccc4)C(=O)[C@@H]3[C@](CC)(C1=O)N2C(=O)c1ccc(C(C)(C)C)cc1	x	1	10	0.1	5	-11
Cc1c(O)c(=O)n(-c2ccccc2)n1C	10	-2	17	-0.9	4	-5
CCOC(=O)C1=C(C)N=c2s/c(=C/c3ccc(OCC(=O)O)cc3)c(=O)n2C1c1ccc(OC)cc1OC (stereo not given)	7	-4	-3	-0.6	x	-16
CN(C)CCCNc1nc2cc(-c3cncnc3)sc2c(=O)n1C	x	-13	x	-0.2	-9	-5
CCOC(=O)c1c(NC(=O)CSc2nnc(CNC(=O)c3ccco3)n2C)sc2c1CCC2	15	-15	-4	-0.2	-16	-13
CCSCCNC(=O)c1cc(-n2cnnc2)ccc1Cl	0	-2	-1	-0.9	3	-1

The results go on:
compound	TRPV1 potentiator	Six1-Eya2 inh	TRPML1 inh	TRPML1 ag	CtBP-E1A blk	D2 potentiator
CCCC1OC(c2cc3c(cc2Cl)OCO3)OCC1CC (stereo not given)	x	26	-6	-0.5	42	-5
CC(=O)Nc1ccc(OCC(O)Cn2c(C)nc3ccccc32)cc1 (stereo not given)	-5	2	-20	-0.2	0	-10
Cn1c(=O)oc2cc(S(=O)(=O)N3CCCC(C(=O)NCC4COc5ccccc5O4)C3)ccc21 (stereo not given)	-32	3	-11	-0.4	-6	-4
COC(=O)c1ccc(OCC(=O)c2cccc(OC)c2)cc1	9	4	-14	1.5	15	-7
CCCn1c(Cc2ccccc2)n[nH]c1=S	5	11	-12	0.8	-3	-10
S=c1[nH]nc(CSCCOc2ccc(Cl)cc2Cl)o1	6	-2	83	0.2	-8	-2
Cc1ccc(S(=O)(=O)NCCSc2nnnn2-c2ccccc2)cc1	17	-3	-2&3	-0.7&1.9	4	-5
Cc1cccc(N(C(=O)c2snc(C(N)=O)c2N)C(C(=O)NCC2CCCO2)c2cccs2)c1 (stereo not given)	-10	4	23	0.4	x	-14
O=C(c1ccc(CNS(=O)(=O)c2ccc(Br)cc2)cc1)N1CCCCC1	-22	1	13	-1.0	-11	-8
Cc1noc(C)c1Cc1c(Cl)cccc1Cl	10	9	0	0.5	7	-4
CCCCOc1ccc(C(=O)NCC(=O)N(C)CC(=O)Nc2ccc(N3CCOCC3)cc2)cc1	3	-5	-12	-0.3	5	5
CCC(NS(=O)(=O)c1ccc(C)cc1)C(=O)N1CCC2(O)CCCCC2C1 (stereo not given)	2	12	-2	-0.2	-2	-1
Cc1cc(N2CCN(C)CC2)nc2ccc(NC(=O)CCC(=O)N3CCN(c4ccc([N+](=O)[O-])cc4)CC3)cc12	18	-16	0	0.1	-8	-12
COc1cccc(C(=O)OCC(=O)Nc2ccccc2N2CCOCC2)c1	-18	-1	11	-0.8	0	2
Cc1cc(C)c(C)c(S(=O)(=O)NCC(=O)Nc2sc3c(c2C(N)=O)CCCC3)c1C	15	-3	-10	-0.3	-8	22
NC(=O)/C(=C\c1ccccc1)NC(=O)/C=C/c1ccccc1	14	1	-10	1.1	7	-6
CC1(C)CC(=O)C=C(NNC(=O)c2ccccc2)C1	-12	-2	-8	-0.3	-4	-14
CCOC(=O)Cn1c(=O)c(F)cn(Cc2ccc(OC)c([N+](=O)[O-])c2)c1=O	4	1	-16	-0.9	3	5
CCOCCCNC(=O)c1ccc(-n2c(=S)[nH]c3ccccc3c2=O)cc1	-3	1	14	-1.0	-9	3
CSC1=NC(C)(C)C=C(/C=C/c2ccc(Cl)cc2Cl)N1	-4	-9	4	0.6	0	-26
C[C@H](CO)N1C[C@H](C)[C@@H](CN(C)C(=O)c2ccc3ccn(C)c3c2)OCc2cnnn2CCCC1=O	x	0	14	-0.6	25	3
Cc1cccc(-c2noc(CCC(=O)NCC3CCCO3)n2)c1 (stereo not given)	-7	7	1	2.3	0	-11
Cc1ncoc1C(=O)NCCC(c1ccccc1)c1ccccc1	-46	15	1	-0.6	3	-1
COc1ccccc1/C=C/C=N/NC(=O)c1ccncc1	-18	1	-5	0.0	3	-3
CCCn1nnnc1NC(=O)COc1ccc(CC)cc1	0	-11	-23	-0.3	-10	1
CCOC(=O)c1nnc(-c2ccc(C)cc2)nc1Sc1ccc(Cl)cc1	0	2	19	-0.4	0	9

Some entries already given, showing only TRPML1 inh, TRPV1 potentiator and D2 potentiator:
Molecule	TRPML1 inh	TRPV1 potentiator	D2 potentiator
CC(=O)Nc1ccc(OCC(O)Cn2c(C)nc3ccccc32)cc1 (stereo not given)	-20	-5	-10
CCCC1OC(c2cc3c(cc2Cl)OCO3)OCC1CC (stereo not given)	-6	x	-5
CCCn1c(Cc2ccccc2)n[nH]c1=S	-12	5	-10
CCOC(=O)c1nnc(-c2ccc(C)cc2)nc1Sc1ccc(Cl)cc1	19	0	9

Reprinted at random: two compounds from above, in no set order.
compound	TRPV1 potentiator	Six1-Eya2 inh	TRPML1 inh	TRPML1 ag	CtBP-E1A blk	D2 potentiator
Cc1ccc(S(=O)(=O)NCCSc2nnnn2-c2ccccc2)cc1	17	-3	-2&3	-0.7&1.9	4	-5
Cc1noc(C)c1Cc1c(Cl)cccc1Cl	10	9	0	0.5	7	-4

Copied from the list:
Under TRPV1 potentiator, COc1ccccc1/C=C/C=N/NC(=O)c1ccncc1 shows -18
Under D2 potentiator, Cc1cccc(-c2noc(CCC(=O)NCC3CCCO3)n2)c1 (stereo not given) shows -11
Under CtBP-E1A blk, CCOC(=O)Cn1c(=O)c(F)cn(Cc2ccc(OC)c([N+](=O)[O-])c2)c1=O shows 3
Under CtBP-E1A blk, Cn1c(=O)oc2cc(S(=O)(=O)N3CCCC(C(=O)NCC4COc5ccccc5O4)C3)ccc21 (stereo not given) shows -6

Bioassay records from PubChem.
